StopGo FLuc – FMDV 2A StopGo reporter, firefly signal. HEK cells with a luciferase reporter of 2A StopGo recoding. Potency, µM (highest dose often 57.5 µM), without a hit: at the top dose signal change, negative = less light. 120,000 tested, 0.23% active; active = well fitted falling curve with a large enough effect; inconclusive = small, poorly fitted or top-dose-only effect; inactive = no such curve, though single readings can be large or run the other way; also: nearly all actives have a fitted effect of over 60% in size; overnight with compound
StopGo RLuc – lowers the Renilla signal of an FMDV 2A StopGo reporter; HEK cells with a luciferase reporter of 2A StopGo recoding; 120,000 tested, 0.32% active; Potency, µM (highest dose often 57.5 µM), inactives show at the highest dose signal change, negative = less light; AID 1745857; active means well fitted falling curve with a large enough effect; inconclusive means small, poorly fitted or top-dose-only effect; inactive means no such curve, though single readings can be large or run the other way; also: nearly all actives have a fitted effect of over 55% in size; overnight with compound
* marks the source's active call; other numbers are inactive results; ? = inconclusive; [ ] = remark or other dose. % is scaled to controls: 0 for no effect and ±100 for the full control effect; potency is read from the fitted curve at half-maximal effect. Not all compounds are listed (hit frequency here may not be typical).

SMILES	StopGo FLuc	StopGo RLuc
CC1=C(c2ccc(F)cc2)S(=O)(=O)N=C1N1CCC(C(=O)NCCc2ccccc2)CC1	-9%	26%
COc1ccc(-c2nn(Cc3nc(-c4ccccc4Br)no3)c(=O)c3ccccc23)cc1	20%	0%
CCN(c1ccccc1)S(=O)(=O)c1cc2c3c(c1)C(C)C(=O)N3CCC2 (centres undefined)	2%	39%[activator]
c1ccc(C2CCC(NCC3CCCO3)CC2)cc1 (centres undefined)	-4%	-1%
Cc1cccc(C)c1NC(=O)Cn1c(SCC(=O)NCc2ccccc2)nc2ccccc21	-21%	3%
Cc1ccc(-c2cc3n(c2)CCc2ccccc2-3)cc1	84%[activator]	?
Cc1ccc(-c2nc3nc(CNc4ccccc4C)cc(=O)n3[nH]2)cc1	62%[activator]	0%
O=C(c1ccccc1)C1CCN(C(=O)/C=C/c2cccc(F)c2)CC1	-14%	?
CC(C)C(CNCc1ccccc1)N1CCCC1 (centres undefined)	-8%	-3%
CCc1nn(-c2ccccc2)c2c1CN(C(=O)NC)C(c1ccccc1)c1cccn1-2 (centres undefined)	-22%	-15%
CN(C)CCNC(=O)C1CCN(Cc2cc3ccccc3n2Cc2ccccc2)CC1	-29%	-12%
Cc1nc(-c2ccc(S(=O)(=O)Nc3cccc(Cl)c3)cc2)co1	20%	203%[activator]
CC(C)(C#N)C(=O)NCc1ccccc1OCc1ccccc1	-8%	0%
CCOc1ccc2nc(C)cc(Nc3ccccc3OCC)c2c1	-22%	-18%
Cc1c(NC(=O)C(F)(F)F)ccc2nc3c(=O)n(C)c(=O)n(C)c3nc12	-11%	-11%
N#C/C(=C/c1ccc(OC(F)(F)C(F)C(F)(F)F)cc1)C(=O)NC1CC1 (centres undefined)	22%	0%
COc1cc2nc(N3CCN(C(=O)c4ccco4)CC3)nc(N)c2cc1OC	-16%[27 µM]	-13%[23.8 µM]
CCOc1ccc(N(CC(=O)NCc2ccc(C)cc2)S(=O)(=O)c2c(C)[nH]c(=O)[nH]c2=O)cc1	-16%	-18%
CC(=O)c1cc(-c2ccc(F)cc2)n(CCC(=O)NCc2ccccc2C)c1C	-11%	-5%
COc1cccc(Nc2nc3ccc(C(=O)c4ccccc4)cc3n3c(C)nnc23)c1	-6%	-10%
CCOc1cc(C(=O)Nc2c(NC)c3ccccc3oc2=O)cc(OCC)c1OCC	39%[activator]	110%[activator]
Cc1ccc(-n2ncc(C(=O)NCc3ccccc3C)c2-n2cccc2)cc1	0%	25%
COC(=O)c1cc(C(=O)c2cc(F)ccc2O)cc(C(=O)OC)c1O	14%	15%
Cc1nc2c(C(=O)NCCc3ccc(Cl)cc3)c[nH]n2c(=O)c1Cc1ccc(Cl)cc1	-25%	-3%
CCN(C(=O)Cn1c(Cl)nc2c1c(=O)n(C)c(=O)n2C)C1CCCCC1	-1%	-7%
COc1ccc(-c2noc(-c3ccc(S(=O)(=O)N4CCOCC4)o3)n2)cc1	10%	-3%
Cc1ccccc1NC(=O)c1c(NC(=O)C(C)Oc2cccc(Cl)c2)sc2c1CCCC2 (centres undefined)	-22%	-10%
Cc1cccc(C)c1NC(=O)c1c(C)oc2c1C1=NCCN1C=N2	-18%	10%
C=C(C)C1CC=C(C)/C(=N/NC(N)=S)C1 (centres undefined)	7%	2%
COCc1ccccc1CNC(=O)c1ccsc1	-4%	-1%
CSc1ccc(CNCCCOC(C)C)cc1	1%	5%
CCOc1ccccc1NC(=O)c1cc(S(=O)(=O)NC2CCCC2)ccc1F	-16%	277%[activator]
CCCCCn1cc2c(c1-c1ccc(Br)cc1)c(=O)n(C)c(=O)n2C	-16%	-8%
O=C(O)CCCN1CCS(=O)CC1	-2%	-6%
Cc1ccc(CNC(=O)c2ccc3noc(-c4ccccc4)c3c2)cc1	1%	-6%
CCOc1ccc(NC(=O)c2sc(-c3ccco3)nc2-c2ccccc2)cc1OC	13%	11%
C#CC(CC)(CC)NC(=O)Cc1cccc(C)c1	11%	4%
CC(Nc1ccc([N+](=O)[O-])c2cnccc12)c1ccc(F)cc1 (centres undefined)	?	25µM*
COc1ccc(C2=C(C)C(N3CCN(c4ccc(OC)cc4)CC3)=NS2(=O)=O)cc1	-5%	-6%
COC(=O)c1c(NC(=O)C(=O)NCc2cccnc2)sc2c1CC(C)(C)OC2	-16%	-16%
O=C(CSc1nc2c(c(=O)[nH]1)CCCC2)Nc1oncc1-c1ccccc1	21%	16%
COc1cccc(-c2nc(-c3ccc(Br)cc3)no2)c1OC	68%[activator]	3%
N#CC(C(=O)CCc1ccccc1)C(=O)NCc1ccccc1 (centres undefined)	0%	0%
O=S(=O)(c1ccc(F)cc1)N1CCN(Cc2coc(-c3cccs3)n2)CC1	3%	-6%
O=C(CSc1nc2c(oc3ccccc32)c(=O)n1Cc1ccco1)Nc1ccccc1Cl	-17%	-17%

Given bar-delimited: part of the list above
SMILES | StopGo FLuc | StopGo RLuc
CC(Nc1ccc([N+](=O)[O-])c2cnccc12)c1ccc(F)cc1 (centres undefined) | ? | 25µM*
COc1ccc(C2=C(C)C(N3CCN(c4ccc(OC)cc4)CC3)=NS2(=O)=O)cc1 | -5% | -6%
COC(=O)c1c(NC(=O)C(=O)NCc2cccnc2)sc2c1CC(C)(C)OC2 | -16% | -16%
O=C(CSc1nc2c(c(=O)[nH]1)CCCC2)Nc1oncc1-c1ccccc1 | 21% | 16%
COc1cccc(-c2nc(-c3ccc(Br)cc3)no2)c1OC | 68%[activator] | 3%
N#CC(C(=O)CCc1ccccc1)C(=O)NCc1ccccc1 (centres undefined) | 0% | 0%
O=S(=O)(c1ccc(F)cc1)N1CCN(Cc2coc(-c3cccs3)n2)CC1 | 3% | -6%

(listing goes on)
SMILES	StopGo FLuc	StopGo RLuc
CNC(=O)NC(=O)C(C)SC(C)c1c(F)cccc1F (centres undefined)	11%	6%
CC1CC(C)CN(C(=O)c2ccc3c(c2)C(=O)c2ccccc2-3)C1 (centres undefined)	?	?
C#CC(C)(CC)NC(=O)c1ccc(OC)c(OC)c1 (centres undefined)	13%	1%
O=C(Nc1cccc(C(F)(F)F)c1)N1CCN(Cc2ccc(Cl)s2)CC1	?	?
O=C(O)COc1c(Cl)cc(/C=C2/NC(=O)NC2=O)cc1Cl	2%	6%
CN(C)c1ccc(C(=O)OC(C(=O)c2ccccc2)c2ccccc2)cc1 (centres undefined)	7%	15%
CCOC(=O)c1cncn1C(C)c1ccccc1 (centres undefined)	-8%	-4%
COC(=O)c1cc(NC(=O)Cn2nc(-c3ccccc3)c3c(c2=O)CCCC3)cc(C(=O)OC)c1	-23%	-22%
CCOC(=O)c1cc(-c2ccc(OC)cc2)n(CCC(=O)NC2CCC(C)CC2)c1C (centres undefined)	-10%	25%
CCCCn1c(CN2CCN(c3ccccc3)CC2)nc2c1c(=O)n(C)c(=O)n2C	?	?
COCCn1cnc2c1c(=O)n(Cc1cccc3ccccc13)c(=O)n2Cc1ccccc1	310%[activator]	27%
Cc1ccc(S(=O)(=O)c2nnn3c2nc(NC2CCCCC2)c2sccc23)cc1C	16%	70%[activator]
CC(C)c1ccc(/C=C/C(=O)Nc2ccc(Br)cc2F)cc1	46%[activator]	1%
COc1ccc(C23CC4CC(CC(C(N)=O)(C4)C2)C3)cc1	0%	12%
CC(C)c1ccc(NC(=O)c2cc3sc(Cl)cc3n2C)cc1	25%	6%
COc1ccc(NC(=O)Cn2c(=O)n(CCc3ccccc3)c(=O)c3ccccc32)cc1	90%[activator]	2%
O=C1C=CC=C/C1=C\N(O)c1ccccc1	28%	15%
Cc1ccc2c(c1)NC(=O)c1cc(S(=O)(=O)N(C)Cc3ccccc3)c(Cl)cc1O2	10%	13%
COC(=O)CC1C(=O)NCCN1S(=O)(=O)c1ccc(Br)cc1 (centres undefined)	5%	4%
CC1(C)CC(=O)C2=C(C1)Nc1[nH]n(-c3ccccc3)c(=O)c1C2c1ccc(Cl)cc1 (centres undefined)	0%	196%[activator]
COc1cc(C2Nc3ccccc3C(=O)N2C2CC2)ccc1O (centres undefined)	5%	2%
COCCNC(=O)c1sc2nc3n(c(=O)c2c1C)CCC3	-12%	-13%
CCOC(=O)N1CCN(C(=O)c2cnn(-c3cccc(C)c3)c2-n2cccc2)CC1	-4%	3%
COc1ccc(N(C(=O)c2ccc(S(=O)(=O)N3CCCCC3)cc2)C2C=CS(=O)(=O)C2)cc1 (centres undefined)	-8%	7%
Cc1ccc(C2CC(=O)CC(c3ccccc3)S2)cc1 (centres undefined)	0%	19%
CC(C)c1ccc(S(=O)(=O)c2nnn3c2nc(NCCc2ccccc2)c2sccc23)cc1	-8%	60%[activator]
Cc1nn(S(=O)(=O)c2ccc(C(C)C)cc2)c(C)c1S(=O)(=O)N1CCCCCC1	-1%	0%
CC(C)CCN(Cc1ccco1)C(=O)c1cc2c(s1)-c1ccccc1OC2	44%[activator]	105%[activator]
Cc1cccc(OCC(=O)Nc2ccc(Cl)c(-c3nc4ccccc4[nH]3)c2)c1	-15%	13%
FC(F)(F)c1cc(-c2cccs2)nc(S)n1	14%	-3%

Whole records, looked up by structure. Screens in order: StopGo FLuc	StopGo RLuc
`O=C(c1ccccc1)C1CCN(C(=O)/C=C/c2cccc(F)c2)CC1` reads -14%	?
`CSc1ccc(CNCCCOC(C)C)cc1` reads 1%	5%
`COc1ccc(-c2noc(-c3ccc(S(=O)(=O)N4CCOCC4)o3)n2)cc1` reads 10%	-3%
`Cc1ccc2c(c1)NC(=O)c1cc(S(=O)(=O)N(C)Cc3ccccc3)c(Cl)cc1O2` reads 10%	13%
`COc1cc2nc(N3CCN(C(=O)c4ccco4)CC3)nc(N)c2cc1OC` reads -16%[27 µM]	-13%[23.8 µM]

(further entries)
SMILES	StopGo FLuc	StopGo RLuc
CC(=O)N1c2ccc(S(=O)(=O)N3CCN(c4cc(Cl)ccc4C)CC3)cc2CC1C (centres undefined)	?	?
CC(C)c1ccc2c(c1)CCCN2C(=O)c1cnc2c(cnn2C(C)C)c1	-10%	-10%
O=c1[nH]c(=O)n(CCc2ccccc2)c2nccc(-c3ccccc3)c12	-2%	-9%
CN(C)C(=O)C(F)(F)C(F)(F)C(F)(F)C(F)(F)C(=O)N(C)C	-5%	-5%
C=C(C)Cn1c(SC(C)C)nc2c1c(=O)[nH]c(=O)n2C	11%	-4%
COc1ccc(N2CC(NC(=O)/C=C\c3ccccc3)CC2=O)cc1OC (centres undefined)	-14%	-3%
CC(C)(C)c1ccc(CCC(=O)Nc2ccccc2O)cc1	?	?
Cc1cc(OC(C)C(=O)NCCCN(C)C)c2c(C)cc(=O)oc2c1 (centres undefined)	-5%	-12%
CCOc1ccc(NC(=O)c2c(C)nn(-c3ccc(F)cc3)c2-n2cccc2)cc1	-4%	-10%
Clc1ccccc1N1CCN(c2ncnc3nc[nH]c23)CC1	2%	-3%
COc1ccc2c(c1)c1c(c(=O)n(-c3ccc(OC)c(OC)c3)c(=O)n1Cc1ccccc1F)n2C	-14%	-9%
Cc1cc2oc(=O)cc(COC(=O)c3cccs3)c2cc1C(C)C	10%	-4%
CCOc1ccc(OCC)c(NC(=O)C2CCN(c3nnc(-n4cccc4)s3)CC2)c1	1%	-5%
COCCCNC(=O)c1cc(C2CC2)nc2ccccc12	5%	-1%
CC(C)C(=O)Nc1nc2c(s1)C(=O)CC(C)(C)C2	5%	-4%
CCOC(=O)C1CCN(C(=O)c2ccc3c(c2)sc2nc(-c4ccc(OCC)cc4)cn23)CC1	-12%	-18%
CN(Cc1ccccc1)C(=O)C1CCCN(Cc2ccccc2C(F)(F)F)C1 (centres undefined)	-4%	16%
O=C(Nc1cccc(Cl)c1)c1ccc(F)c(S(=O)(=O)N2CCC3(CC2)OCCO3)c1	-29%	?
COc1ccc(S(=O)(=O)NCC(=O)O)c2ccccc12	12%	13%
CCc1cccc(CC)c1NC(=O)CCS(=O)(=O)c1ccc(Br)s1	-10%	-3%
COc1ccc(C2c3c(n(C)c4ccccc34)C(=O)N2CC(=O)Nc2ccccc2F)cc1 (centres undefined)	-14%	5%
COc1ccc(N2CC(C(=O)NCCNC(=O)c3cn(C)c4ccccc34)CC2=O)cc1 (centres undefined)	8%	0%
Cc1cccc(-c2nc(Cn3c(=O)cc(-c4ccccc4)c4c(C)nn(C)c43)c(C)o2)c1	-17%	-13%
Cc1cccc(C(=O)N(C2CCCCC2)C2CCCCC2)c1	-13%	?
C[N+]1(CC2COC(c3ccccc3)(c3ccccc3)O2)CCCCC1 (centres undefined)	-22%[27 µM]	-13%[23.8 µM]
COc1ccc(C(=O)/C(C#N)=C\c2cccc(Cl)c2Cl)cc1	11%	17%
Cc1ccc(-c2nc(CS(=O)CC(=O)Nc3ccc(C)c(C)c3)cs2)cc1 (centres undefined)	0%	27%
COc1ccc(-n2nc(C(=O)Nc3ccc(C(C)=O)cc3)nc2-c2ccccc2)cc1	6%	19%
COc1cc(OC)c(NC(=O)Cn2c(=O)cc(C)c3c(C)nn(-c4ccc(C)cc4)c32)cc1Cl	-8%	-3%
CCC(CC)C(=O)NCCc1c[nH]c2ccc(C)cc12	1%	5%
Nc1ccccc1OCC(F)(F)F	-6%	2%
CCc1ccc(/C=C(/C#N)c2nc(-c3ccc(C)cc3)cs2)cc1	-3%	1%
COc1ccc(C(=O)N2CCC(c3c[nH]c4ccccc34)(c3c[nH]c4ccccc34)CC2)cc1	-28%	-14%
COCCn1c(-n2nc(C)c(C)c2C)nc2c1c(=O)n(Cc1ccc(F)cc1)c(=O)n2C	?	?
CCOc1c(CC2C(=O)Nc3ccc(Br)cc32)cccc1OC (centres undefined)	-16%	15%

From PubChem
